# B2AR ag = agonists of human beta-2 adrenergic receptor inducing internalization; hit rate 0.43% among 340,000; response, % (concentration not given with the values); Am2.2-beta2AR cells, FAP receptor internalization, flow cytometry; reference of the scale not given here; P07550; AID 504454;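 active = response above a set limit, near 3 SD of response in nonfluorescent compounds, cut at about 42% in these data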;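 note: stock transfer was 100 nL into about 11 µL; a reference agonist was the positive control; negative values mostly stem from fluorescent compounds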
# Target sequence (P07550 whole entry, looked up): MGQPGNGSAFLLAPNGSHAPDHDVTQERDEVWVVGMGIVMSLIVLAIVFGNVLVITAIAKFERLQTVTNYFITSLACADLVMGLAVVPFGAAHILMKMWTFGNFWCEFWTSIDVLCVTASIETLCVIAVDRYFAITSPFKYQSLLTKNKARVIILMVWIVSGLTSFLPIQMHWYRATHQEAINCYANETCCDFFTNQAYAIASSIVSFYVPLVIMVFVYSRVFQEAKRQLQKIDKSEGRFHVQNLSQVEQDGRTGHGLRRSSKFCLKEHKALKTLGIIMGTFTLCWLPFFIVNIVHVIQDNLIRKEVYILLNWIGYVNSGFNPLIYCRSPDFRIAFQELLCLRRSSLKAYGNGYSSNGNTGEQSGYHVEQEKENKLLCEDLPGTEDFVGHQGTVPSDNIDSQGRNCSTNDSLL
# UCH37 DUB inh = human UCH37 deubiquitinating enzyme inhibition; Q9Y5K5; purified proteasome/UCH37, Ub-AMC cleavage fluorescence; inhibition, % (concentration not given with the values); hit rate 0.33% among 330,000;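 active = mean of two replicates above 20%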;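 note: 0% = compound-free wells with enzyme and 100% = wells lacking proteasome; stock transfer was 100 nL into about 20 µL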
# Target sequence (Q9Y5K5 whole entry, looked up): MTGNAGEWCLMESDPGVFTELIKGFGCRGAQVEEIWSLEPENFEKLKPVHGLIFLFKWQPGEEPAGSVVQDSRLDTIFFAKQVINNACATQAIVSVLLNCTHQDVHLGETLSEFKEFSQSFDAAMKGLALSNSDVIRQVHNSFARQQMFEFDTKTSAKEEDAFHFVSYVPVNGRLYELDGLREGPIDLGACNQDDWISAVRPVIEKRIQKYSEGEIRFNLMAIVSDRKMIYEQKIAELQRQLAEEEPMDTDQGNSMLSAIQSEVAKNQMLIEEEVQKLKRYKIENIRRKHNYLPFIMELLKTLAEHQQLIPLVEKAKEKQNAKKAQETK
#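 Material: human UCH37 enzyme supplied as purified proteasome complex / Amount: 0.15 nM proteasome as dispensed / Buffer or medium: pH 7.4 Tris-HCl (50 mM) with ovalbumin, ATP-MgCl2, DTT / Times: preincubation 30 min, reaction 25 min, room temperature / Technique: AMC fluorescence from Ub-AMC cleavage, excitation 355 nm, emission 460 nm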
# Starred values were filed as active, the others as inactive; & = joins results of further samples. An excerpt; rates above refer to the full screens.
SMILES,B2AR ag,UCH37 DUB inh
Cc1ccc(C(CC(=O)O)NC(=O)CCNC(=O)c2ccco2)cc1 (stereo not given),3,1.5
O=C(OCc1nnc(-c2ccc([N+](=O)[O-])cc2)o1)c1ccc(F)c(S(=O)(=O)N2CCOCC2)c1,7,4.6
CCCn1c(C)cc(/C=C(\C#N)C(=O)OCC(=O)N(CC)c2c(N)n(Cc3ccccc3)c(=O)[nH]c2=O)c1C,7,7.8
N#CC(c1ccc([N+](=O)[O-])cc1)C(CC(=O)c1ccccc1)c1ccccc1 (stereo not given),-6,-1.0
COc1ccc2[nH]c3c(c2c1)CCN1C(=O)C(CC(=O)NCc2ccco2)C[C@H](C(=O)N2CCCCC2)[C@@]31C (stereo not given in full),-8,5.6
CN(C(=O)C=Cc1ccco1)c1ccccc1,-2,6.6
COc1ccc(CCC(=O)Nc2ccc(N3CCOCC3)c(S(=O)(=O)Nc3ccc(OC)cc3)c2)cc1,0,1.7
S=c1sscc1-c1ccccc1,4,4.9
O=C1c2ccccc2C(=O)N1N(c1ccccc1)c1ccccc1,5,2.0
O=C1OCCN1C(=O)[C@H]1[C@H](c2ccc([N+](=O)[O-])cc2)C(c2ccc(F)cc2)=NN1c1ccccc1,4,7.1
COc1ccc2[nH]c3c(c2c1)CCN1C(=O)C(CC(=O)NCc2cccc(C(F)(F)F)c2)C[C@H](C(=O)N(C(C)C)C(C)C)[C@@]31C (stereo not given in full),-1,0.3
Cc1cc(C(=O)C(C(c2ccccc2)N2CCOCC2)N2CCOCC2)ccc1Cl (stereo not given),8,3.6
CC(=O)Oc1ccc(C2=Cc3ccc(OC(C)=O)cc3OC2C)cc1 (stereo not given),5,-13
O=c1oc(=O)c2ccccc2c2ccccc12,-3,-0.1
CCOc1ccccc1N1CC(C(=O)NCCC2=CCCCC2)CC1=O (stereo not given),3,17
CCc1cc(C(=O)NNC(=O)c2csc(N3CCOCC3)n2)sc1C,-4,-1.6
CC(=O)N(c1cc(C)ccc1C)c1ccccc1[N+](=O)[O-],12,2.3
COc1ccc(-c2sc3cc(OC)c(OC)cc3c2C#CCO)cc1,17,-18
Cn1ncc2c(=S)nc(Cl)[nH]c21,3,4.3
O=C(NCCCCNCCCNC(=O)c1ccccc1)c1ccccc1,-12,-1.3
CN1CCC(N(C)C(=O)c2ccc(Cl)c(S(=O)(=O)N3CCCCC3)c2)CC1,8,1.2
O=C(C=Cc1ccco1)c1ccco1,1,-28
CCCc1cc(=O)oc2c(C)c(OCC(=O)c3ccc(N4CCCC4)cc3)ccc12,2,-11
CC(C)n1cc2c(N)ncnc2n1,3,0.5
O=C(Cn1cnc2c(NCc3ccccc3)ncnc21)NCC1CCCO1 (stereo not given),-9,-0.4
CCOCc1c(C(=O)N2CCN(CCOc3ccc(Cl)cc3)CC2)oc2ccccc12,-6,0.2
O=C(COc1ccccc1/C=C\c1nc(O)c([N+](=O)[O-])c(=O)[nH]1)Nc1ccccc1,1,14
COc1cc2c(c(OC)c1OC)C(c1ccc(C)cc1)CC(=O)O2 (stereo not given),-3,2.8
N#Cc1ccccc1OCC(=O)OCC(=O)NC1CCCCC1,6,-0.4
O=C(c1ccccc1)C(O)(CN1CCCCC1)c1ccccc1 (stereo not given),7,3.0
N#CC(=C(O)COC(=O)Cc1c[nH]c2ccccc12)c1nc2ccccc2[nH]1,15,5.1&1.1
Oc1ccc(C=NNC(=S)Nc2ccc(F)cc2)c(O)c1,7,1.7
Cc1ccc(-c2nn(Cc3ccccc3)cc2C(=O)NCC2CCCO2)cc1 (stereo not given),2,-0.9
CC(C)NC1CCC(Nc2ccnc3cc(Cl)ccc23)CC1 (stereo not given),24,5.9
O=C(Nc1cccc(S(=O)(=O)N2CCCCC2)c1)[C@@H]1CCCN1S(=O)(=O)c1ccccc1C(F)(F)F,0,6.8
Cc1cc(NC(=O)NCc2ccco2)ccc1NC(=O)NCc1ccco1,1,2.8
CCOC(=O)C1=C(COC(=O)CSc2ccc(C)cc2C)NC(=O)NC1C (stereo not given),0,3.1
O=C1N=C2N(CCN3CCCCC3)c3ccccc3N2/C1=C\c1ccc([N+](=O)[O-])s1,-27,2.4
O=[N+]([O-])c1ccc2c(c1)CCN2,10,11
CCCNC(=O)CSc1ccc(S(=O)(=O)N2CCCCC2)cn1,0,0.8
CC[C@]12c3[nH]c4cc(CCC(=O)N(C)C)ccc4c3CCN1C(=O)[C@@H](CC(=O)NCC13CC4CC(CC(C4)C1)C3)C[C@@H]2C(=O)N1CCN(C(=O)c2ccco2)CC1,1,4.4
CC(C)(C)OC(=O)C[C@@H]1C/C=C\C[C@@H](CC(=O)N(CCO)Cc2ccccc2)C(=O)N2CCC[C@H]2COC1=O,3,-1.5
CCCN=C1N(C)C[C@@H]2[C@@H]3C(=O)N(C)C(=O)[C@@H]3[C@](C)(C(=O)OC)N12,2,-1.3
CCCCNc1c(-c2ccc(OC)c(SC3CCCCC3)c2)nc2ccc(C)cn12,76*,-163
COc1ccc(-c2ccc(-c3cc(=O)oc4cc(OC)c(OC)c(OC)c34)cc2)cc1OC,7,-12
Cc1ccc(O)c(C(=O)c2cnn(C(=O)c3cccc(S(=O)(=O)N(C)C)c3)c2)c1,6,-8.7
O=C1C(=NO)C(c2ccccc2)Oc2ccccc21 (stereo not given),10,5.2
O=C(CSc1nncs1)Nc1cc(S(=O)(=O)N2CCOCC2)ccc1N1CCCC1,7,-0.1
Cc1c(C(=O)N2CCc3ccccc32)oc2c1C(=O)CC(C)(C)C2,-15,-3.7
COc1ccccc1COC(=O)c1cccc(S(=O)(=O)N2CCCC2)c1,-1,2.8
CC1(C)COC(c2cccc([N+](=O)[O-])c2)OC1,0,3.4
CC[C@]12c3[nH]c4cc(CCC(=O)N(C)C)ccc4c3CCN1C(=O)[C@@H](CC(=O)NC/C=C(\C)CCC=C(C)C)C[C@@H]2C(=O)N1CCN(C(=O)c2ccco2)CC1,1,3.7
COC(=O)c1c(NC2=NS(=O)(=O)c3ccccc32)sc2c1CCC(C(C)(C)C)C2 (stereo not given),4,-87
Cc1nn(-c2ccc(F)cc2)c(Cl)c1/C=C(/CCC(=O)O)c1nc2ccccc2s1,6,6.4
O=S(=O)(Nc1ccc(-c2ccc(NS(=O)(=O)c3ccccc3)cc2)cc1)c1ccccc1,17,3.2
COc1ccc2c(-c3ccc(OCCN4CCOCC4)cc3)c(-c3ccccc3OC)sc2c1,3,-24
COc1ccc(CN2CCN(C(=O)c3ccc(S(=O)(=O)N4CCCCCC4)cc3)CC2)cc1,1,2.8
CCCCn1c(SCC(=O)NCc2ccc3c(c2)OCO3)nnc1C(CC)N(C)C (stereo not given),-5,3.3
CC(=O)NC(=S)NNC(=O)COc1ccc(Br)cc1,5,1.2
O=c1[nH]c2cc3c(cc2cc1CN(CCc1ccccc1)C(=S)NCCCN1CCOCC1)OCCO3,9,-33

# Compound profiles, as listed above:
# CN(C(=O)C=Cc1ccco1)c1ccccc1 reads B2AR ag = -2; UCH37 DUB inh = 6.6
# COc1ccc(CCC(=O)Nc2ccc(N3CCOCC3)c(S(=O)(=O)Nc3ccc(OC)cc3)c2)cc1 reads B2AR ag = 0; UCH37 DUB inh = 1.7

# New compounds follow
SMILES,B2AR ag,UCH37 DUB inh
CC(NC(=O)c1ccccc1Cl)C(=O)N1CCN(Cc2ccc3c(c2)OCO3)CC1 (stereo not given),6,3.4
C(=C1c2ccccc2-c2ccccc21)c1ccccn1,1,1.8
Cn1c(C(=O)NCCCN2CCN(c3ccc(F)cc3)CC2)cc2c(=O)n(C)c3ccccc3c21,5,-4.4
CC(C)N(C(=O)[C@H]1C[C@H](CC(=O)NCCCn2ccnc2)C(=O)N2CCc3c([nH]c4ccc(Cl)cc34)[C@]12C)C(C)C,-2,1.5
COc1ccc(C)cc1C(=O)CCC(=O)N1CCN(c2ccccc2F)CC1,6,-2.3
CCN(CC)C(=O)[C@H]1C[C@H](CC(=O)NCCCN(C)C)C(=O)N2CCc3c([nH]c4cc(-c5ccco5)ccc34)[C@]12C,8,-17
COC(=O)[C@]1(C)N[C@H](CN(C)S(=O)(=O)c2ccc(C(C)(C)C)cc2)[C@@H]2C(=O)N(C)C(=O)[C@@H]21,-4,3.9
O=C(C[C@H]1C[C@H](C(=O)N2CCOCC2)[C@@]2(CCC3CCCC3)c3[nH]c4cc(-c5ccco5)ccc4c3CCN2C1=O)NCCC1=CCCCC1,7,-14
O=C(O)/C=C(/c1ccccc1)C(F)(F)F,4,0.5
COc1ccccc1CNCC(=O)Nc1cc(S(=O)(=O)N2CCCCC2)ccc1C,2,2.6
O=C1NC(=O)C(CCc2ccccc2)(c2ccccc2)N1 (stereo not given),2,3.8
COc1cccc(NC(=O)CN(C)C(=O)c2ccc(Cl)c(S(=O)(=O)N3CCCCCC3)c2)c1,0,2.2
CCSc1nc2sc3c(c2c(=O)n1C1CCCCC1)CCN(C)C3,3,-41
CC1CC(=O)Nc2ccccc2N1 (stereo not given),6,1.5
Cc1cc(Br)c(Oc2cc(NN3CCCCC3)c([N+](=O)[O-])cc2[N+](=O)[O-])c(Br)c1,8,1.2

# Entries listed so far containing a COOH group:
SMILES,B2AR ag,UCH37 DUB inh
Cc1ccc(C(CC(=O)O)NC(=O)CCNC(=O)c2ccco2)cc1 (stereo not given),3,1.5
Cc1nn(-c2ccc(F)cc2)c(Cl)c1/C=C(/CCC(=O)O)c1nc2ccccc2s1,6,6.4
O=C(O)/C=C(/c1ccccc1)C(F)(F)F,4,0.5

# Other records follow.
SMILES,B2AR ag,UCH37 DUB inh
COc1ccc(C(CNC(=O)c2nn(-c3ccccc3)c(=O)c3ccccc23)N2CCOCC2)cc1 (stereo not given),4,0.3
O=C(CCc1ccccc1)Nc1ccccc1OC(=O)c1ccccc1,-7,3.1
CN(C(=O)c1cccc(NC(=O)Cc2cccc(NC(=O)C3CCN(C(=O)CCc4ccccc4)CC3)c2)c1)C1CC1,3,0.5
Oc1c(Cl)cc(Oc2cc(Cl)c(O)c(CN3CCOCC3)c2)cc1CN1CCOCC1,-17,3.8
O=C1Nc2ccccc2C1=NN1CCCCCC1,0,7.8
O=C(CN1CCN(Cc2cccc(C(F)(F)F)c2)CC1)NCC(=O)Nc1ccc(F)c(F)c1F,-5,0.2
COCc1nnc(NS(=O)(=O)c2ccc(OC)cc2)s1,-1,-1.7
CN(c1ccccc1)S(=O)(=O)c1cccc(C(=O)Nc2cccc(C(=O)NC3CC3)c2)c1,51*,3.5
Cc1ccc(NS(=O)(=O)c2ccccc2F)cc1S(=O)(=O)N1CCCCC1,8,1.7
O=C1NC(=O)C(=Cc2ccco2)S1,0,18
CCOC(=O)N1CCN(C(=O)C(CC(C)C)NS(=O)(=O)c2ccc(C)cc2)CC1 (stereo not given),7,3.0
Cc1ccc(NC(=O)CCN2C(=O)C3CC=CCC3C2=O)cc1Cl (stereo not given),3,0.9
COc1ccc(C(=O)NCC(=O)N2CCC(Cc3ccccc3)CC2)cc1OC,4,-2.3
Nc1c2c(=O)[nH]c(O)cc2nn1-c1ccccc1,7,31*
Cc1ccc(NC(=O)CN(C)C(=O)CSc2nc3ccccc3c(=O)n2CCO)cc1,7,4.8

# With a hit mark in UCH37 DUB inh, of those listed so far:
SMILES,B2AR ag,UCH37 DUB inh
Nc1c2c(=O)[nH]c(O)cc2nn1-c1ccccc1,7,31*

# Part of the list above, with tabs:
canonical_smiles	B2AR ag	UCH37 DUB inh
O=C1Nc2ccccc2C1=NN1CCCCCC1	0	7.8
O=C(CN1CCN(Cc2cccc(C(F)(F)F)c2)CC1)NCC(=O)Nc1ccc(F)c(F)c1F	-5	0.2
COCc1nnc(NS(=O)(=O)c2ccc(OC)cc2)s1	-1	-1.7
CN(c1ccccc1)S(=O)(=O)c1cccc(C(=O)Nc2cccc(C(=O)NC3CC3)c2)c1	51*	3.5
Cc1ccc(NS(=O)(=O)c2ccccc2F)cc1S(=O)(=O)N1CCCCC1	8	1.7

# New compounds follow
SMILES,B2AR ag,UCH37 DUB inh
CC1CN(Cc2ccccc2)C(=O)N(c2ccccc2)C1=O (stereo not given),0,1.0
Cc1ccc(S(=O)(=O)NC(C(=O)N2CCN(S(=O)(=O)c3cccc(F)c3)CC2)C(C)C)cc1 (stereo not given),11,-1.7
O=C(COC(=O)c1ccccn1)NCc1cccc(Cl)c1,3,2.4
CC(C)(C)c1nnc2sc(SCC(O)=C(C#N)c3nc4ccccc4[nH]3)nn2c1=O,1,4.7&2.7
Cc1ccc(S(=O)(=O)c2nc(-c3ccccc3)oc2N2CCCC2)cc1,8,4.8
CC(C)(C)OC(=O)C(C1NC(C(=O)O)C(C)(C)S1)N1C(=O)c2ccccc2C1=O (stereo not given),-1,2.9
COc1ccc(-c2noc(CCC(=O)N3CCN(c4cccc(OC)c4)CC3)n2)cc1,18,-0.7
CCCCCc1ccc(C(=O)CCC(=O)OCC(=O)N(CC)c2c(N)n(Cc3ccccc3)c(=O)[nH]c2=O)cc1,-5,2.9
CCOC(=O)C1=CN(Cc2ccco2)S(=O)(=O)NC1c1ccc(F)c(Cl)c1 (stereo not given),2,3.6

# From PubChem BioAssay
